# From PubChem BioAssay
# TRPV1 PAM: potentiators of human vanilloid receptor 1 (TRPV1); TRPV1-expressing cells, Fluo-8 calcium influx, capsaicin EC20 potentiation; host cell line not named in the record; control for the full effect not named in the record; Q8NER1; actives 0.02% (n = 320,000); potentiation, % at 8.33 µM; AID 540277; active means potentiation above 80%; inconclusive means 30% to 80%; inactive means below 30%; also: 0% is about no effect
# Target sequence (Q8NER1 whole entry, looked up): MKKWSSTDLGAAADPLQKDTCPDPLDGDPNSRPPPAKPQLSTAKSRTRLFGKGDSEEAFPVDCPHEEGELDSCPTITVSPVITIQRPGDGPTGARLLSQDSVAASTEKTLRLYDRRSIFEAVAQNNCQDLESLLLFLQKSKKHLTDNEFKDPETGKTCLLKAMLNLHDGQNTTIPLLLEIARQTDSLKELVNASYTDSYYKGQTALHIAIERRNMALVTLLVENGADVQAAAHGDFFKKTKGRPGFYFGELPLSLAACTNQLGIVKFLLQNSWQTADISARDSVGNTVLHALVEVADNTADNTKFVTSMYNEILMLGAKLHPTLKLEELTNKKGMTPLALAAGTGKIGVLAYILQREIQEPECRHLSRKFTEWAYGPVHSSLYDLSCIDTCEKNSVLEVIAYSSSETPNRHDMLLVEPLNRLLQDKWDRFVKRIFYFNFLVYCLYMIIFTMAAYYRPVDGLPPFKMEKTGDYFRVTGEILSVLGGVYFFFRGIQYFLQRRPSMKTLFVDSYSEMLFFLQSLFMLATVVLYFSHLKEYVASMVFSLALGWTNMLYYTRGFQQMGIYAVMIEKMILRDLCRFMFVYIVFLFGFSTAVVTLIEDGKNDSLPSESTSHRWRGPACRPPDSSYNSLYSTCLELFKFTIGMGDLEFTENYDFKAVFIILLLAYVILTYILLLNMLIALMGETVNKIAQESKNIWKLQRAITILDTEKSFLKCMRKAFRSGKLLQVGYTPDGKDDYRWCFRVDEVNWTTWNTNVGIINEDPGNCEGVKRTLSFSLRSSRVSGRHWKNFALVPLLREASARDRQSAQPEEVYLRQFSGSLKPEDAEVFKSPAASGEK
#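 Cells expressing TRPV1 were dye-loaded with Fluo-8 and read kinetically: 10 s baseline, 3 min after compound (agonist portion), then 2 min after EC20 capsaicin (allosteric enhancer portion). Calcium-bound dye fluorescence at 480/520 nm.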
# gsp antagonist: gsp mutant antagonism | actives 0.4% (n = 340,000) | Potency, µM (highest dose often 76.9 µM), inactives show at the highest dose activity change, negative = inhibition, actives largely listed as inhibitors | gsp-mutant cells, cAMP HTRF, 30 min; control for the full effect not named in the record | AID 624288; active = falling curve of any shape with a large fitted effect; inconclusive = falling curve, mostly with a smaller effect; inactive = flat or rising curve; cell line not stated here;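 also: intracellular cAMP measured with PDE inhibitor Ro 20-1724 present during compound exposure; potency is read from the fitted curve at half-maximal effect; % is scaled to controls: 0 for no effect and ±100 for the full control effect; nearly all actives have a fitted effect of over 65% in size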
#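 Measurement of cellular cAMP by homogeneous time-resolved fluorescence following a 30 min compound exposure at 37C. The PDE inhibitor […] was present throughout; the assay buffer was DPBS with 0.05% BSA and 0.005% Tween 20.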
# gsp ag: agonists of gsp mutant (McCune-Albright syndrome) | gsp mutant cells, cAMP HTRF, 30 min; control for the full effect not named in the record | Potency, µM (top dose mostly 76.9 µM), for the others: at the highest dose activation (cAMP increase), hits mostly activators | AID 624287 | actives 0.13% (n = 340,000); active = well fitted activation curve with a large enough effect; inconclusive = small, poorly fitted or top-dose-only effect, or another doubt; inactive = no such curve, though single readings can be large or run the other way; cell line not stated here;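 also: phosphodiesterase inhibitor Ro 20-1724 added with compounds to block cAMP breakdown; potency is read from the fitted curve at half-maximal effect; nearly all actives have a fitted effect of over 60% in size; about a fifth of the inactives were tested at one dose only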
#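 Cells in DMEM/10% FBS with G418 were pretreated with compounds in DMSO plus […] (300 uM stock) for 30 min at 37C. cAMP was measured by HTRF (cAMP-d2 plus anti-cAMP antibody-K) after 30 min at room temperature.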
# Sfp PPTase inh: blocks B. subtilis Sfp PPTase activity; actives 3.5% (n = 310,000); AID 1490; Q9F4F7; Biochemical Sfp PPTase activity, qHTS; Potency, µM, for the others: max response, negative = inhibition, actives largely listed as inhibitors; active = well fitted inhibition curve with a large enough effect; inconclusive = small, poorly fitted or top-dose-only effect, or another doubt; inactive = no such curve, though single readings can be large or run the other way;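 also: the enzyme is Sfp with the accession as filed and its product quenches rhodamine fluorescence; potency is read from the fitted curve at half-maximal effect; 0% = enzyme reaction without inhibitor and -100% = no enzyme wells; top concentration of the series not given in the record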
#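 Sfp 15 nM + cpd, 15 min RT; start w/ rhodamine-CoA 5 uM, BHQ-2-YbbR 12.5 uM (final); 50 mM Hepes pH 7.6, 10 mM MgCl2, 0.01% NP-40, 0.01% BSA; read 525/598 nm at 0 and 30 min.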
# Menin MLL FP FL: displaces fluorescein MLL peptide from human menin | Fluorescence polarization, fluorescein-MLL peptide displacement from menin | FP activity change, % at 61.4 µM | 290,000 tested, under 10 active | AID 1766; inconclusive = falling polarisation curve, or a change in total fluorescence; inactive = total fluorescence flat and polarisation flat or rising; no compound was filed as active; the % refers to the polarisation; negative = inhibition;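 also: % of control where 0% means no effect; inhibitors lower the polarisation; unlabelled MLL peptide was the positive control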
# ClpP mod: qHTS Assay for Activators of ClpP. AID 651965, 2013. Potency, µM (top dose mostly 57.5 µM), for the others: at the highest dose activity change, negative = active. actives 1.9% (n = 340,000). purified B. subtilis ClpP, FRET peptide cleavage, 20 min; active = well fitted falling curve with a large enough effect; inconclusive = small, poorly fitted or top-dose-only effect; inactive = no such curve, though single readings can be large or run the other way; also: potency is read from the fitted curve at half-maximal effect; the source files actives as falling curves though it sought activators and does not explain the sign; nearly all actives have a fitted effect of over 65% in size; many hits overshoot -100%
#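 Buffer: 100 mM Tris/HCl pH8, 100 mM KCl, 0.05% low protease BSA, 2.5% glycerol, 0.01% Tween-20. ClpP 10 microg/mL final; 20 min RT; delta FRET normalized to ADEP and DMSO controls.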
# D2 potentiator: human D2 receptor positive allosteric modulation | AID 624464 | P14416 | DiscoveRx D2 beta-arrestin cells, luminescence, 90 min; 100% = 57 uM dopamine signal | potentiation, % (test concentration not listed) | actives 0.23% (n = 360,000); active = potentiation of 50% or more; inconclusive = 30% to 50%; inactive = 30% or less;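 also: compound concentration not given in the record; tested on top of an EC20 dose of dopamine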
#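 D2 cells co-treated with compound plus 50 nM dopamine (EC20) for 90 min at 37 deg C to detect potentiation. Beta-arrestin recruitment was read as enzyme-fragment luminescence after 1 h at ambient temperature. Full response was set by 57 uM dopamine.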
# Numbers without * were called inactive; ? = inconclusive; · = no result given; & = joins results of further samples; [ ] = another dose, or the depositor's remark.
molecule,Menin MLL FP FL,gsp ag,D2 potentiator,ClpP mod,TRPV1 PAM,Sfp PPTase inh,gsp antagonist
Cc1cc(OCc2nnc(SC(C)C(=O)O)n2Cc2ccccc2)ccc1Cl (stereo not given),2.5,21%[15.4 µM],-10,·,-7,15%,-3%
Cc1ccc(-n2c(SCC(=O)NCc3ccco3)nnc2-c2cccnc2)cc1,4.5,0%,-18,-0.5%,5,-18%,-17%
CC(Sc1ncnc2c1cnn2-c1ccccc1)C(=O)Nc1ccc(N2CCOCC2)cc1 (stereo not given),·,5%,-2,1.2%,1,·,-1%
Cc1c(C(c2cc3c(cc2Br)OCO3)c2c(C)n(C)n(-c3ccccc3)c2=O)c(=O)n(-c2ccccc2)n1C,-0.6,-32%[inhibitor],-26,?,11,9%,0%
CCOC(=O)C1(Cc2ccccc2C)CCCN(C(=O)c2ccc(CSC)o2)C1 (stereo not given),·,-108%[inhibitor],2,-2.1%,-16,-10%,-12%
Cc1sc2nc(SCC(=O)NCCOCCO)nc(N)c2c1C,-0.4,?,-6,·,7,11%,2%
O=S1(=O)CCOC[C@H](c2ccccc2)N1Cc1cccc(Cl)c1,2.1,-27%,-10,-1.3%&-3.7%,4,12%,7%
N#CCCN(C(=O)CSc1ccc2c(c1)OCCO2)c1ccc(F)cc1,2.4,1%,-9,-1.2%,-3,14%,2%
Cc1cc(-c2ccccc2)nc2cc(C(=O)OC(C)C)nn12,-2.7,3%,-2,-14%,12,5%,-3%
COc1ccc(C(=O)NC2CCCc3c2cnn3-c2ccccc2F)cc1OC (stereo not given),5.4,-14%,-13,-1.3%,15,19%,-31%
O=C(Nc1ccc(-c2ccc(N3CCCCC3)nn2)cc1)c1ccco1,·,-29%,-9,-6.9%,7,·,-26%
Cc1ccc(C)c2[nH]c(=O)c(CCNC(=O)CC(C)C)cc12,-2.0,-23%,-10,-18%,-2,15%,6%

# 4 entries from above in another layout.
N#CCCN(C(=O)CSc1ccc2c(c1)OCCO2)c1ccc(F)cc1
  Menin MLL FP FL: 2.4	gsp ag: 1%	D2 potentiator: -9	ClpP mod: -1.2%	TRPV1 PAM: -3	Sfp PPTase inh: 14%	gsp antagonist: 2%
CCOC(=O)C1(Cc2ccccc2C)CCCN(C(=O)c2ccc(CSC)o2)C1 (stereo not given)
  Menin MLL FP FL: ·	gsp ag: -108%[inhibitor]	D2 potentiator: 2	ClpP mod: -2.1%	TRPV1 PAM: -16	Sfp PPTase inh: -10%	gsp antagonist: -12%
COc1ccc(C(=O)NC2CCCc3c2cnn3-c2ccccc2F)cc1OC (stereo not given)
  Menin MLL FP FL: 5.4	gsp ag: -14%	D2 potentiator: -13	ClpP mod: -1.3%	TRPV1 PAM: 15	Sfp PPTase inh: 19%	gsp antagonist: -31%
Cc1c(C(c2cc3c(cc2Br)OCO3)c2c(C)n(C)n(-c3ccccc3)c2=O)c(=O)n(-c2ccccc2)n1C
  Menin MLL FP FL: -0.6	gsp ag: -32%[inhibitor]	D2 potentiator: -26	ClpP mod: ?	TRPV1 PAM: 11	Sfp PPTase inh: 9%	gsp antagonist: 0%

# Next part:
molecule,Menin MLL FP FL,gsp ag,D2 potentiator,ClpP mod,TRPV1 PAM,Sfp PPTase inh,gsp antagonist
CCn1nnnc1NCc1ccc(SC)cc1,0.2,-22%,-3,-0.6%,-19,8%,2%
COc1ccc(C(CC(=O)Nc2ccccn2)N2Cc3ccccc3C2=O)cc1OC (stereo not given),-0.1,-16%,-3,0.2%&-1.8%,-8,14%,-3%
Cc1c(-c2cc(C(=O)O)on2)cnn1C,2.2,2%,-6,·,1,8%,8%
O=c1cc(Nc2ccc3c(c2)OCCO3)[nH]c(=O)n1Cc1ccc(F)cc1,13,-5%,-5,-0.4%,-9,-16%,-19%
COC(=O)CCN(C)CCC(=O)OC,1.1,7%,30,1.5%,4,12%,50µM*
COc1cc(NC(=O)c2nccnc2C(=O)O)cc(OC)c1,1.6,-34%[inhibitor],-9,-0.4%,20,-6%,10%
NC(=S)NNC(=O)/C(=C/c1ccc(Br)cc1)NC(=O)c1ccccc1,1.1,-74%[inhibitor],-8,-0.3%,7,15%,4%
O=C(CCN1C(=O)c2ccccc2C1=O)NCc1ccc(F)cc1,-0.3,25%,-4,-3.9%,-13,-7%,4%
O=C(CSc1n[nH]c(=O)[nH]c1=O)c1ccc(Cl)cc1Cl,2.2,8%[15.4 µM],-2,·,2,7%,-10%
C/C1=C\CCC2C(/C=C(\C)CC1)OC(=O)C2CN1CCCCC1 (stereo not given),0.5,-6%,-9,·,-7,10%,0%
O=C(Nc1cccc(-c2cccc(F)c2)c1)C1CCN(C2CCC2)CC1,·,23%,-4,0.1%,-16,-8%,3%
CS(=O)(=O)N(CC(=O)Nc1ccc(S(=O)(=O)N2CCCC2)cc1)c1cccc(F)c1,4.5,-29%,-7,-1.9%,8,8%,-15%

# Later entries
molecule,Menin MLL FP FL,gsp ag,D2 potentiator,ClpP mod,TRPV1 PAM,Sfp PPTase inh,gsp antagonist
CC(NS(=O)(=O)c1ccc(Cl)cc1)C(c1cccs1)N1CCN(C)CC1 (stereo not given),0.8,20%,-12,-1.1%,?,1%,8%
C=CCn1c(SCC(=O)NCCCC(=O)OCC)nc2scc(-c3ccco3)c2c1=O,1.0,-2%[15.4 µM],18,·,-10,18µM*,-1%
COc1ccc(NCc2ccsc2)cc1,0.5,-4%,-2,0.7%,16,-8%,-1%
CCOC(=O)c1cn(-c2c(C)n(C)n(-c3ccccc3)c2=O)c2c(F)c(F)c(F)cc2c1=O,6.9,8%[15.4 µM],-5,·,2,4%,-10%
COc1ccccc1/C=C/C=N/NC(=O)c1ccco1,1.0,?,-8,·,-2,4%,-14%
Cc1ccc(C(=O)N/N=C/c2sc(=O)n(Cc3cccc(C(=O)O)c3)c2Cl)cc1,9.4,8%,-12,0.8%,6,2%,-2%
CCOc1cc(/C=C2\SC(=S)N(NS(=O)(=O)c3ccc(C)cc3)C2=O)ccc1O,·,-5%,-12,-2.7%,·,·,-24%
CC1CCN(c2nc(/C=C/c3ccccc3)nc3ccccc23)CC1,0.4,-23%[15.4 µM],-10,2.6%,-7,-23%,-11%
CCOc1ccc(NC(C)=O)cc1,-2.9,·,6,-0.2%&1.0%,6,5%&20%&14%&13%,7%
CCSC1=NCCN1C(=O)c1c(-c2ccccc2Cl)noc1C,-1.9,4%[15.4 µM],4,-0.8%,0,13%,-3%
CCN(C[C@H]1N[C@@](C)(C(=O)OC)[C@H]2C(=O)N(C)C(=O)[C@@H]12)S(=O)(=O)c1ccc(-c2ccccc2)cc1,·,·,-2,0.0%,·,·,-3%

# Four consecutive entries from above, quoted:
molecule,Menin MLL FP FL,gsp ag,D2 potentiator,ClpP mod,TRPV1 PAM,Sfp PPTase inh,gsp antagonist
CC1CCN(c2nc(/C=C/c3ccccc3)nc3ccccc23)CC1,0.4,-23%[15.4 µM],-10,2.6%,-7,-23%,-11%
CCOc1ccc(NC(C)=O)cc1,-2.9,·,6,-0.2%&1.0%,6,5%&20%&14%&13%,7%
CCSC1=NCCN1C(=O)c1c(-c2ccccc2Cl)noc1C,-1.9,4%[15.4 µM],4,-0.8%,0,13%,-3%
CCN(C[C@H]1N[C@@](C)(C(=O)OC)[C@H]2C(=O)N(C)C(=O)[C@@H]12)S(=O)(=O)c1ccc(-c2ccccc2)cc1,·,·,-2,0.0%,·,·,-3%
